TRPML1 ag = agonists of human TRPML1 channel; Q9GZU1; TRPML1-expressing cells, Ca2+ dye fluorescence, FDSS; host cell line not named in the record; reference of the full effect not given here; activation, % (concentration not given with the values); 0.12% of 410,000 active; AID 624414; in the data active = activation above about 50%; inconclusive = about 30% to 50%; inactive = below about 30%; note: 0% is about no effect; the text of the record puts the active cut at 80%
Target sequence (Q9GZU1 whole entry, looked up): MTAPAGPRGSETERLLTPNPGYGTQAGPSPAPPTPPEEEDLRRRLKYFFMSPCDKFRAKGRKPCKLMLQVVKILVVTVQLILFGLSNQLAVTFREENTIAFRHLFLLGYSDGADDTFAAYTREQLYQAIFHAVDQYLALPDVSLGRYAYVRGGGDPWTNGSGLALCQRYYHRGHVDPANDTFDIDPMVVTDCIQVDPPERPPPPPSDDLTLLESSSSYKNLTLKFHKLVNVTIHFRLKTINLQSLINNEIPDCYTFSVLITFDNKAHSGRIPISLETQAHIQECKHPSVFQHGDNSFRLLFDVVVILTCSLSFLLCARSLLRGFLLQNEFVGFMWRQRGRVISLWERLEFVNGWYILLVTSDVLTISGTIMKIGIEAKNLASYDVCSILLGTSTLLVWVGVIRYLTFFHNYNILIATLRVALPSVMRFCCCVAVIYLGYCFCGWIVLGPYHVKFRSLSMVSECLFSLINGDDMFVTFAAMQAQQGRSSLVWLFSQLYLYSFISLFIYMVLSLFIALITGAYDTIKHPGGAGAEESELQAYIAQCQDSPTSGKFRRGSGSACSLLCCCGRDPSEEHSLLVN
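Tetracycline-induced TRPML1-DL cells are seeded and incubated overnight before loading with a no-wash Ca2+ dye and quencher. Agonist activity is taken from the 110 s fluorescence read following compound pin-transfer on an FDSS, before EC80 54-4 challenge.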
CtBP-E1A inh = inhibitors of CtBP/E1A interaction; 0.49% of 340,000 active; activity change, % (concentration not given with the values); AlphaScreen GST-E1A/His-CtBP binding, 1536-well; hits give low values; control for the full effect not named in the record; in the data active means activity change below about -65%; inconclusive means about -30% to -65%; inactive means above about -30%; note: % is set by controls: 0 for no effect and ±100 for the full control effect
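AlphaScreen with 125 nM GST-E1A and 125 nM His-CtBP (5X stocks) in Tris pH 8.0, 300 mM NaCl, BSA, Tween 20, TCEP. Compounds preincubated 2 h at 37 deg C, then glutathione donor/nickel acceptor beads added for 1 h at 37 deg C in dark.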
Six1-Eya2 blk = Six1/Eya2 interaction inhibition; AlphaScreen GST-Six1/His-Eya2 binding, biochemical; hits give low values; control for the full effect not named in the record; activity change, % (test concentration not listed); 0.56% of 360,000 active; in the data active = activity change below about -65%; inconclusive = about -30% to -65%; inactive = above about -30%; note: % is set by controls: 0 for no effect and ±100 for the full control effect; compound concentration not given in the record
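Compounds are tested against tagged Six1 and Eya2 proteins bridged by glutathione donor and nickel acceptor beads; after a one-hour incubation at 37 °C without light, AlphaScreen emission is recorded.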
D2 agonist = human D2 receptor agonism in beta-arrestin assay. DiscoveRx PathHunter D2 beta-arrestin, luminescence, 90 min; 100% = 57 uM dopamine signal. P14416. activation, % (concentration not given with the values). AID 624465. 0.084% of 360,000 active; in the data active = activation above about 40%; inconclusive = about 15% to 40%; inactive = below about 15%; note: compound concentration not given in the record; the text of the record calls up to 30% inactive
Target sequence (P14416 whole entry, looked up): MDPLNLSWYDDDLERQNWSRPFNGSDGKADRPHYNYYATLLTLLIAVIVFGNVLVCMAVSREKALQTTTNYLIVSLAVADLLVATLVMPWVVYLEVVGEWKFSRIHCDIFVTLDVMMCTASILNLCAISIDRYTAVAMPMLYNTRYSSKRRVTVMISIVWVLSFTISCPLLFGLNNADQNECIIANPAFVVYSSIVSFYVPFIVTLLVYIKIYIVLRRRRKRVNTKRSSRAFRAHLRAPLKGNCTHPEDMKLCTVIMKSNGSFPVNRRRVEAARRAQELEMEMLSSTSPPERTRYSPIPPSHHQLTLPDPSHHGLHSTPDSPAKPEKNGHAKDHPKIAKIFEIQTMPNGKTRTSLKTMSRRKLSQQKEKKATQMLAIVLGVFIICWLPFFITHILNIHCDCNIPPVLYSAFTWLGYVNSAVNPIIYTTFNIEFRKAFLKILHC
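Agonist mode: compounds alone added to overnight-plated D2 PathHunter cells for 90 min at 37 C, with 57 uM final dopamine (EC100) defining full response. Beta-arrestin recruitment detected by chemiluminescent reagent, read after 1 h at ambient temperature.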
TRPML1 inh = blocks the human TRPML1 channel; TRPML1-inducible cells, Ca2+ dye fluorescence, FDSS; hits give low values; inhibition of EC80 agonist-evoked calcium signal; activity change, negative = inhibition, % (no concentration beside the values); 0.02% of 390,000 active; AID 624415; in the data active means activity change below about -50%; inconclusive means about -30% to -50%; inactive means above about -30%;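 note: stimulus is agonist 54-4 at its EC80 concentration; % is set by controls: 0 for no effect and ±100 for the full control effect; compound concentration not given in the record; the text of the record puts the active cut at -80%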
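Calcium fluorescence in TRPML1-DL cells induced overnight with Tet: a 110 s read after compound pin addition, then a 110 s antagonist read after challenge with 54-4 at 4 uM final (EC80).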
PINK1 modulator = changes PINK1 expression; PINK1 immunofluorescence, high-content cytometry, 24 h; Potency, µM (titrated, usually from 76.6 µM), for the others: at the highest dose activation (PINK1 increase), hits mostly activators; 0.2% of 410,000 active; active = well fitted activation curve with a large enough effect; inconclusive = small, poorly fitted or top-dose-only effect; inactive = flat fitted curve, though single readings scatter; cell line not stated here;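 note: potency is the fitted concentration of half-maximal effect; % of control where 0% means no effect; nearly all actives have a fitted effect of over 65% in size; a mitochondrial uncoupler was the plate control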
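Compound titrations (5 concentrations, 24 h) on a stable cell line; DMSO and CCCP controls. Endpoint: fixed-cell PINK1 immunofluorescence with mitochondrial, cell and nuclear markers, scanned by microplate cytometer.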
* hit, by the source's call; u = inconclusive; x = no result given; & = joins results of further samples; [ ] = dose if it differs, or a comment.

Sequence of screens: TRPML1 ag, CtBP-E1A inh, Six1-Eya2 blk, D2 agonist, TRPML1 inh, PINK1 modulator
CCOC(=O)N1CCN(CC(O)COc2c(OC)cccc2OC)CC1 (stereo not given)
→ 0.3, 3, 6, -0.6, 21, -1.1%
COc1cccc(CN2CCc3nc(Nc4ccc5c(c4)OCCO5)ncc3C2)c1OC
→ 1.4, x, x, x, -2, -1.1%
CCOC(=O)C1CCN(Cc2cnc(NC(=O)OC)s2)CC1
→ -0.2, -5, 5, 8.3, -10, x
CC(=O)C12CCCCC1CC1C3CC(C)C4(O)CC(=O)CCC4(C)C3CCC12C (stereo not given)
→ 0.3, 1, 0, -0.3, 3, 15%
O=C(C=Cc1ccccc1)N1CCCCC1
→ 0.3, 3, 2, 8.8, -19, 3.7%
Cc1cc2nc(CCN(C(=S)NCC3CCCO3)C3CCCC3)[nH]c2cc1C (stereo not given)
→ 3.2, -7, -6, -18, -3, -1.4%
COc1cc2c(cc1OC)CN(C(=O)c1ccc(N3CCCC3)c([N+](=O)[O-])c1)CC2
→ 0.4, -19, u, -4.2, -1, 1.1%
Cc1ccc(S(=O)(=O)NCC(=O)NCC(=O)OCC(=O)N2CC(=O)Nc3ccccc32)cc1C
→ 0.8, x, 0, -1.6, 17, -1.1%
CCOC(=O)c1c(N)nn(C(C)=O)c1-c1ccccc1
→ 0.3, 1, 9, -4.8, 26, -0.2%
O=C1[C@@H](c2ccccc2)[C@@H](c2ccccc2)N1c1cccnc1
→ 1.6, -15, 5, 0.8, -9, -2.2%
O=C(CCCC(=O)N1CCc2ccccc21)N1CCc2ccccc21
→ 0.1, 4, 6, -1.5, 0, 0.5%
O=C(CN1C(=O)NC2(CCOc3ccccc32)C1=O)N1CCCCC1 (stereo not given)
→ 1.5, -15, 0, -1.9, 34, -1.7%
CC(C)c1ccc(NC(=S)NN2CCOCC2)cc1
→ 0.6, -1, 1, 0.2, 16, 1.0%
Cc1ccc(N(C)S(=O)(=O)c2cccc(C(=O)NCC(c3ccco3)N3CCCC3)c2)cc1 (stereo not given)
→ 0.2, -1, -1, -6.8, 11, -1.2%
Cc1ccc(C2c3[nH]c4ccccc4c3C[C@H]3C(=O)N(c4ccccc4C(=O)N4CCC[C@H]4C(=O)O)C(=O)N23)cc1 (stereo not given in full)
→ x, -5, -7, -5.4, x, 0.1%
CC(C)Oc1cccc(C2NC(=O)c3ccccc3O2)c1 (stereo not given)
→ -0.7, -2, 5, -5.9, 0, -0.1%
O=C(Nc1ccccc1[N+](=O)[O-])c1cc(S(=O)(=O)Nc2ccccn2)ccc1Cl
→ -0.3, 2, -10, 1.1, 10, -2.2%
C[C@@H]1NC(=O)N(c2ccc(F)cc2)C1=O
→ -0.7, -2, 1, 1.0, -1, 1.1%
CCc1nc2ccc(C(=O)Nc3ccc(C(N)=O)cc3)cn2c1N(CCC(C)C)CCN(C)C
→ -0.4, 1, 2, 3.2, x, 3.2%
O=C(O)C(CO)(c1ccccc1)c1ccccc1
→ 0.0, 2, 7, -0.3, -2, -0.2%
C/C(=N/NC(=O)c1cc(-c2cccc([N+](=O)[O-])c2)n[nH]1)c1cccc(O)c1
→ -0.1, x, -19, -3.0, 8, 5.3%
OCCOCCn1c(C2CCCN2c2nc(-c3ccc(F)cc3)cs2)nc2cc(C(F)(F)F)ccc21 (stereo not given)
→ -0.6, -4, -4, -5.0, -1, 0.2%
Cc1nnc(NC(=O)CSc2nnc(Cc3cccn3C)n2CCc2ccccc2)s1
→ 0.8, 23, 5, -1.5, -12, -1.0%[38.3 µM]
CCOC(=O)c1c(SCC(=O)Nc2cccc(C)c2C)nc(=O)[nH]c1C
→ -0.3, x, x, x, -5, 1.0%
CSc1ncc(Cl)c(C(=O)Nc2cccnc2)n1
→ x, -1, 4, 2.2, x, -0.2%
O=C1Nc2ccccc2OC1CC(=O)N1CCN(c2cccc(C(F)(F)F)c2)CC1 (stereo not given)
→ -0.6, 21, 5, -1.9, 9, 3.0%[38.3 µM]
CCc1ccc(NC(=O)N(Cc2ccc(C)cc2)Cc2cccn2-c2nnc(N3CCCC3=O)s2)cc1
→ 0.5, x, x, x, 37, 2.7%
CCCNC(=O)c1ccccc1NC(=O)c1cccc(-n2cnnn2)c1
→ 1.1, -13, 0, -2.4, -10, 2.4%
Brc1cccc(C=Nc2cccc3ncccc23)c1
→ -0.3, x, 1, -1.6, -11, 1.6%
CS(=O)CCC(NS(=O)(=O)c1ccccc1)C(=O)O (stereo not given)
→ -0.6, 6, 1, -2.0, -1, 1.1%[38.3 µM]

(next part)
SMILES | TRPML1 ag | CtBP-E1A inh | Six1-Eya2 blk | D2 agonist | TRPML1 inh | PINK1 modulator
CN(C)C(=O)CCc1ccc2c3c([nH]c2c1)[C@]1(CCC2CCCC2)[C@@H](C(=O)N2CCOCC2)C[C@H](CC(=O)NCC24CC5CC(CC(C5)C2)C4)C(=O)N1CC3 | -0.5 | 6 | 0 | 0.8 | 5 | 7.8%
COc1ccccc1N1CCN(S(=O)(=O)c2cc(Br)cnc2N)CC1 | 1.4 | -6 | -4 | -0.4 | -2 | -0.2%
COc1ccc(C2C(C#N)=C(N)Oc3cc(C)n(Cc4ccncc4)c(=O)c32)cc1 (stereo not given) | -1.4 | -3 | 2 | 0.4 | 17 | 1.0%
CC(C)COP(=O)(c1ccc(N(C)C)cc1)C(O)c1ccccc1 (stereo not given) | -0.1 | -2 | 2 | -6.8 | 8 | -1.5%
COc1cccc(-c2nc(-c3ccccc3)nc(N3CCN(C)CC3)c2C#N)c1 | -0.4 | -2 | -7 | -2.9 | -12 | -0.5%
COc1ccc(NC(=O)c2sc3nc[nH]c(=O)c3c2C)cc1Cl | -1.0 | x | x | x | 5 | 5.1%
OC1CCCN(CC(O)COc2ccc(-c3ccccc3)cc2)C1 (stereo not given) | -0.6 | 1 | 11 | -2.1 | -8 | 8.0%
N#Cc1ccccc1OCC(=O)NNC(=O)c1ccncc1 | 1.5 | -3 | 2 | -1.9 | -6 | 1.4%
FC(F)(F)c1cccc(N2CCc3cn[nH]c32)c1 | 0.2 | 0 | 4 | -2.8 | 9 | -2.2%
O=C1N/C(=N/S(=O)(=O)Cc2ccccc2)S/C1=C/c1ccc2c(c1)OCO2 | 1.3 | -21 | -3 | -2.6 | 4 | -0.2%
O=C(CNc1cc([N+](=O)[O-])ccc1NCCO)Nc1cccc(S(=O)(=O)N2CCCCC2)c1 | 0.3 | u | -27 | -6.5 | -2 | -0.1%
O=C(NCCCNC(=O)c1ccccn1)c1ccccn1 | -0.5 | 0 | 1 | -2.0 | 2 | -0.9%
CCOCCCNC(=S)Nc1ccc2nc(N3CCCC3)cc(C)c2c1 | 1.5 | 0 | -7 | -2.5 | 21 | 2.3%
Cc1c2cnn(-c3ccccc3)c(=O)c2c(C)n1CC(=O)Nc1ccccc1Br | -0.9 | x | x | x | 2 | 0.5%
CCCN(C(=O)CCc1nc(-c2ccc(C)cc2)no1)c1ccc(OCC)cc1 | 3.0 | x | x | x | 80 | 15%
CN(C)/[N+]([O-])=N/Oc1ccc([N+](=O)[O-])cn1 | 1.7 | x | x | x | -6 | -0.8%
CC1=CC(C)(C)N(C(=O)CCl)c2ccccc21 | 19 | x | 4 | -5.9 | -6 | 0.5%
CC(C)(C)c1cc(C(=O)NN)n(Cc2ccc(F)cc2)n1 | -0.2 | x | 2 | 12 | -1 | -0.8%
CCCCC(CC)C(=O)Nc1ccccc1C(=O)NC(C)C (stereo not given) | 0.5 | 2 | 4 | -1.5 | -13 | 10%[38.3 µM]
COC(=O)c1onc(C(=O)c2ccccc2)c1C(=O)OC | 0.9 | 6 | 3 | -3.3 | 1 | 16%[38.3 µM]
O=C(O)C1Sc2[nH]c(=O)sc2C2c3cc(Br)ccc3OC(=O)C12 (stereo not given) | 1.8 | -4 | -9 | -6.3 | 8 | 2.8%
COc1cccc(CNS(=O)(=O)c2cc(Br)ccc2Br)c1 | 1.6 | 4 | 10 | -8.9 | 15 | 3.5%
COc1ccc(NC(=O)c2c(C(F)(F)F)nn(C)c2Cl)cc1 | 0.1 | 7 | 9 | -3.5 | -1 | -0.7%
Cn1ncc2c(Nc3ccc(Cl)cc3)ncnc21 | 0.1 | x | 6 | -11 | 11 | 0.3%
COc1ccc(C(CNC(=O)c2nn(-c3ccccc3)c(=O)c3ccccc23)N2CCOCC2)cc1 (stereo not given) | -0.9 | -25 | 3 | -5.4 | -3 | 2.0%
CCOc1cc(/C=C(/C#N)c2nc3ccccc3[nH]2)ccc1OCc1ccc(C(=O)O)o1 | 0.3 | u | u | 2.9 | -4 | 1.3%
Cc1noc(C)c1COc1ccccc1C(=O)NNC(=O)c1ccccc1 | -0.2 | 6 | 9 | 2.3 | 8 | 2.2%
Cc1cc(N(CC(=O)NC2CC2)S(C)(=O)=O)ccc1Br | -0.2 | -7 | 0 | -2.3 | 14 | -0.6%
Cc1cccc(N2CCN(C(=O)c3c(C)nn(Cc4ccccc4Cl)c3C)CC2)c1C | 2.4 | -11 | -8 | 1.0 | -5 | 8.6%
COc1ccc(OC)c(-c2cc(C(=O)NCc3ccc(Cl)cc3)no2)c1 | 1.0&1.5 | x | 27 | -2.6 | 1&36 | 8.0%&3.1%
CCc1ccc(-c2nc(C(N)=O)c3[nH]c(=O)n(-c4ccccc4OC)c3n2)cc1 | 0.4 | -10 | 1 | -30 | 2 | 9.8%
O=C(COC(=O)c1cc[n+]([O-])cc1)NCCc1ccc(Cl)cc1Cl | 0.1 | 2 | -1 | -14 | -6 | 1.9%
COCCCNC(=O)CS(=O)Cc1nc(-c2cccc(OC)c2)oc1C (stereo not given) | -0.1 | -2 | 10 | -1.2 | -2 | x
COc1ccc(NC(=O)C2Cc3ccccc3CN2C(=O)c2ccccc2)cn1 (stereo not given) | -0.4 | -4 | -1 | -4.4 | -11 | 2.5%
FC(F)(F)COc1ccc(-c2nnc(SCc3c(Cl)cccc3Cl)o2)cn1 | 1.0 | 10 | 7 | -4.9 | -8 | 5.9%
Cc1ccc(-c2nc(CS(=O)CC(=O)NCc3ccc(F)cc3)c(C)o2)cc1 (stereo not given) | 0.8 | x | -10 | -7.2 | -11 | 3.5%

Ordered by molecular weight (low to high): seven of the compounds above
SMILES | TRPML1 ag | CtBP-E1A inh | Six1-Eya2 blk | D2 agonist | TRPML1 inh | PINK1 modulator
Cc1noc(C)c1COc1ccccc1C(=O)NNC(=O)c1ccccc1 | -0.2 | 6 | 9 | 2.3 | 8 | 2.2%
O=C(COC(=O)c1cc[n+]([O-])cc1)NCCc1ccc(Cl)cc1Cl | 0.1 | 2 | -1 | -14 | -6 | 1.9%
COc1ccc(OC)c(-c2cc(C(=O)NCc3ccc(Cl)cc3)no2)c1 | 1.0&1.5 | x | 27 | -2.6 | 1&36 | 8.0%&3.1%
COCCCNC(=O)CS(=O)Cc1nc(-c2cccc(OC)c2)oc1C (stereo not given) | -0.1 | -2 | 10 | -1.2 | -2 | x
Cc1ccc(-c2nc(CS(=O)CC(=O)NCc3ccc(F)cc3)c(C)o2)cc1 (stereo not given) | 0.8 | x | -10 | -7.2 | -11 | 3.5%
CCOc1cc(/C=C(/C#N)c2nc3ccccc3[nH]2)ccc1OCc1ccc(C(=O)O)o1 | 0.3 | u | u | 2.9 | -4 | 1.3%
Cc1cccc(N2CCN(C(=O)c3c(C)nn(Cc4ccccc4Cl)c3C)CC2)c1C | 2.4 | -11 | -8 | 1.0 | -5 | 8.6%
